PK Bst: modulators of Bacillus stearothermophilus pyruvate kinase; partly purified Bacillus stearothermophilus pyruvate kinase, luminescence ATP production; ribose 5-phosphate activator present at AC10; Potency, µM; 51,000 compounds, 1.2% hits; AID 361; in the data active means potency below about 11 µM; inconclusive means mostly about 12 µM to 25 µM; inactive means weaker than that;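 the screen sought inhibitors and activators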;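 further: potency means the concentration at half of the fitted maximal effect; scaled between full activation by ribose 5 phosphate and full inhibition by luteolin; about four in five hits inhibit and the cells do not say which; series up to 57 µM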
YjeE inh: inhibitors of E. coli YjeE (TsaE); P0AF67; purified YjeE, fluorescence polarisation of a bound ADP probe; Potency, µM; 71,000 compounds, 0.05% hits; AID 605; active = well fitted falling curve; inconclusive = weaker or top-dose-only fall, or a rising curve; inactive = flat or poorly fitted curve;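 further: top concentration of the series not given in the record; excess ADP was the control for the full effect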
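Fluorescence polarization of a BODIPY Texas Red–ADP probe (2 uM) bound to purified YjeE (10 uM) was read after 15 min room-temperature incubation with compounds. Loss of polarization marks inhibitors; ADP serves as titrated control.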
* = called active by the depositor; i = inactive; ? = inconclusive; nt = not tested or not shown.

Results follow in this order: PK Bst	YjeE inh
- COc1ccc(/C=N/n2cc(-c3ccccc3)nc2N)cc1
    nt	i
- O=C1c2ccccc2C(Nc2ccc(F)c(Cl)c2)N1c1ccccn1 (stereo not drawn)
    nt	i
- COc1ccccc1NC(=O)COc1ccc(C(=O)OCC(=O)N2CCCC2=O)cc1OC
    >57	i
- c1c2c(cc3sc(N4CCCCC4)nc13)OCO2
    6.2*	i
- CC(C(=O)NCC1CCCO1)N(C(=O)c1snc(C(N)=O)c1N)c1cccc(F)c1 (stereo not drawn)
    >57	i
- COc1ccc(CNc2ccc3cn[nH]c3c2)c(OC)c1OC
    nt	i
- O=C(CN1CCN(Cc2ccccc2)CC1)c1c[nH]c2ccccc12
    >57	i
- O=S1(=O)NC(=NCc2ccccc2)c2ccccc21
    >57	i
- Cc1cc(Cl)ccc1OCCCC(=O)NC1CCN(C)CC1
    >57	i
- CCC(CC)NC(=O)c1n[nH]c(=O)c2ccccc12
    >57	i
- CCCn1c(=O)[nH]c(=O)c2[nH]cnc21
    >11	i
- CN1CCN(C2=Cc3ccccc3Oc3ccc(Cl)cc32)CC1
    nt	i
- COc1ccc2c(c1OC)C(=O)OC2c1c(O)nc(SC)n(-c2ccccc2)c1=O (stereo not drawn)
    >26	nt
- Cc1nc2nc(C)c(CCC(=O)NCCCN3CCN(c4cccc(Cl)c4)CC3)c(C)n2n1
    >57	i
- COc1cccc(N2CCN(C3OC(=O)c4ccccc43)CC2)c1 (stereo not drawn)
    >57	i
- CCOC(=O)N1CCN(C(=O)C2CCCN(Cc3nc(-c4ccc(Cl)cc4)oc3C)C2)CC1 (stereo not drawn)
    nt	i
- CC(=O)Nc1ccc(C(=O)CSc2ncn(-c3ccccc3)n2)cc1
    nt	i
- CCOc1ccc(S(=O)(=O)Nc2nc3ccccc3nc2N2CCN(C)CC2)cc1
    >57	i
- Cc1ccc(S(=O)(=O)c2c(N)n(NC(=O)c3ccco3)c3nc4ccccc4nc23)cc1
    >57	i
- CC(C)c1nnc(NC(=O)c2cnccn2)s1
    >57	i
- COCCn1c(-c2ccc(OC)c(OC)c2)nc2ccccc21
    >57	i
- CC(=O)Nc1nonc1NC(=O)CSC1=NCCS1
    >57	i
- Cc1ccccc1NC(=O)C1CCC(C)(C(=O)O)C1(C)C (stereo not drawn)
    nt	i
- CN1CCN(c2nc3c(c(=O)[nH]c(=O)n3C)n2CCOc2ccccc2)CC1
    >57	i
- COc1ccc(-n2c(SCC(=O)Nc3cc(C)on3)nc3c(c2=O)SCC3)cc1
    nt	i
- CCOCCCNc1ccc(-c2ccccc2)nn1
    nt	i
- O=C(Nc1ccccc1C(=O)OCc1nnc(-c2ccccc2)o1)c1ccco1
    >57	i
- Cc1ccc(CC2CC(=O)N(c3ccc4c(c3)OCCO4)C2=O)cc1 (stereo not drawn)
    >26	nt
- NC/C=C\C(=O)O
    nt	i
- COC(=O)CSc1nc(C)cc(Oc2ccccc2)n1
    nt	i

Structures shown so far containing a furan ring, fused or not (2):
Results follow in this order: PK Bst	YjeE inh
- Cc1ccc(S(=O)(=O)c2c(N)n(NC(=O)c3ccco3)c3nc4ccccc4nc23)cc1
    >57	i
- O=C(Nc1ccccc1C(=O)OCc1nnc(-c2ccccc2)o1)c1ccco1
    >57	i

Later entries:
Results follow in this order: PK Bst	YjeE inh
- COc1ccc(NC(=O)N2CCC3(CC2)CCN(C(=O)c2cnccn2)CC3)cc1
    nt	i
- Nc1ncc(-c2ccccc2)n1CC1CCCO1 (stereo not drawn)
    >57	i
- CCN(CC)S(=O)(=O)c1ccc(C(=O)OC2CCCCC2CN(C)C)cc1 (stereo not drawn)
    >57	i
- COC(=O)CC1Nc2ccccc2SC1=O (stereo not drawn)
    >57	i
- CCOC(=O)C(NC(=O)Nc1ccccc1)(OCC)C(F)(F)F (stereo not drawn)
    >57	i
- O=c1c2cc(N3CCOCC3)ccc2[nH]c(=S)n1Cc1ccccn1
    >57	i
- C=CCn1c(Cc2csc(N)n2)nnc1SCC(=O)OCC
    >57	i
- COc1ccc(CCN(C)C(=O)CSc2nccn2C)cc1OC
    >57	i
- Cc1oc(-c2cccs2)nc1CS(=O)CC(=O)NCCc1ccccc1 (stereo not drawn)
    nt	i
- COc1cccc(-c2cc(C(=O)N3CCN(c4ncccn4)CC3)c3ccccc3n2)c1
    nt	i
- Cc1nnc(SC(C)C(=O)Nc2ccc3c(c2)OCCO3)s1 (stereo not drawn)
    >57	i
- COc1cccc(N2C(=O)CC(N3CCC(c4nc5ccccc5[nH]4)CC3)C2=O)c1 (stereo not drawn)
    >57	i
- CCCC(=O)Nc1ccc(Cl)c(NC(=O)c2ccc(Br)o2)c1
    >57	i
- O=C(NCC(=O)N(c1cccnc1)C(C(=O)NC1CCCCC1)c1cccnc1)c1ccco1 (stereo not drawn)
    >57	i
- CCCCN(C)CCNC(=O)c1c[nH]c2ccc(S(=O)(=O)N(CC)CC)cc2c1=O
    >57	i
- Cc1cc(NC(=O)CCC(=O)N(c2cccc(F)c2)C(C(=O)NC2CCCC2)c2ccncc2)no1 (stereo not drawn)
    >57	i
- Cc1cccc(-c2nnc3sc(-c4ccccc4)nn23)c1
    >57	i
- N=c1ccn2c(n1)O[C@@H]1[C@@H](O)[C@H](CO)O[C@H]12
    nt	i
- CN(C)c1ccc(-c2nnn(CC(=O)Nc3ccccc3N3CCOCC3)n2)cc1
    nt	?
- Cn1c(SCC(=O)N2CCOCC2)nc2sc3c(c2c1=O)CCCC3
    >57	i
- Cc1ccc(NS(=O)(=O)c2ccc(C)c(C(=O)N3CCN(C)CC3)c2)cc1
    >57	i
- CC(=O)N1CCN(c2ccc(Oc3nc(-c4ccccc4)nc4ccccc34)cc2)CC1
    >57	i
- CCOC(=O)CC(NS(=O)(=O)c1ccc(NC(C)=O)cc1)c1ccc(OCC)cc1 (stereo not drawn)
    >57	i
- O=C(O)c1ccc(Oc2nc3ccccc3s2)cc1
    nt	i
- CCOC(=O)CNc1ccc2c(c1)OCO2
    >57	i
- Cc1cccc2c1NC(C)CC2C (stereo not drawn)
    >26	nt
- COC(=O)c1ccccc1NC(=O)Cn1cnc2c(cnn2-c2ccccc2)c1=O
    >57	i
- CCCN1C(=O)c2cc(C(=O)Nc3ccccc3CC)ccc2C1O (stereo not drawn)
    nt	i
- Cc1ccc(-c2nc(C3CCN(S(=O)(=O)c4ccc(C(F)(F)F)cc4)CC3)no2)cc1
    >57	i
- Cc1ccccc1CNS(=O)(=O)c1ccc2c(c1)OCCO2
    >57	i
- Cc1cc(NC(=O)CSc2nnc(-c3ccco3)n2CC2CCCO2)no1 (stereo not drawn)
    >57	i
- O=C(Cn1nc(Cl)nc1Cl)c1ccc2c(c1)OCCO2
    >57	i
- O=C(NCc1nnc(SCC(=O)N2CCC(Cc3ccccc3)CC2)o1)c1ccccc1F
    nt	i
- Cc1cc(OCC(O)CN2CCN(C)CC2)ccc1C(C)C (stereo not drawn)
    >57	i
- c1ccc(CCc2nn3c(C4COc5ccccc5O4)nnc3s2)cc1 (stereo not drawn)
    >57	i
- Cc1ccc(-c2nc(C#N)c(NCCc3ccccn3)o2)cc1
    >57	i
- CC(C)n1c(NCc2nc3ccccc3n2C)nc2ccccc21
    >57	i
- Cn1c(SCC(=O)N2CCCc3ccccc32)nnc1-c1ccco1
    >57	i
- NS(=O)(=O)c1ccc(CCNC(=O)CNC(=O)C2CCCCC2)cc1
    >57	i
- O=C(Nc1cccs1)NC1CCCC1
    >57	i
- COc1cccc(OC)c1C(=O)N1CCN(S(=O)(=O)c2ccc(C)cc2)CC1
    >26	nt
- Cc1ccccc1NC(=O)Cn1cnc2c(oc3ccccc32)c1=O
    >57	i
- C[C@@H]1CCN=C(N)S1
    nt	i
- COC(=O)c1ccccc1NC(=O)Cn1c(-c2nonc2N)nc2ccccc21
    >57	i
- CC1(C)Cc2c(sc(NC(=O)c3ccco3)c2C#N)C(C)(C)N1
    >57	i
- O=C(O)c1c(Cl)cccc1Cl
    nt	i
- CCOC(=O)C1CCN(Cc2c(F)cccc2Cl)CC1
    >57	i
- CC1=C(C#N)C(c2cn(-c3ccccc3)nc2-c2cccs2)C(C#N)=C(C)N1
    >57	i
- CCOc1ccc(CCNC(=O)c2oc3c(c2C)-c2[nH]ncc2CC3)cc1OCC
    nt	i
- CCOC(=O)C1=C(N2CCCCC2)c2cc3c(n2C1=O)CCCC3
    >11	i
- COc1cc(C(=O)NCc2nnc(SCC(=O)N3CCCCC3)o2)cc(OC)c1OC
    >57	i
- CCOc1ccc2[nH]c(=O)c(CN(Cc3ccc(C)cc3)C(=O)N3CCCC3)cc2c1
    >57	i
- CC(NC(=O)Nc1ccccc1C(F)(F)F)C1CCCO1 (stereo not drawn)
    >57	i
- Clc1ccc(C(c2ccc(Cl)cc2)n2cc[n+](C[C@@H](OCc3ccc(Cl)cc3Cl)c3ccc(Cl)cc3Cl)c2)cc1
    nt	?
- CC(C)N1C(=O)CN(C2CCCCCC2)C(=O)C1c1ccccc1F (stereo not drawn)
    >57	i
- O=c1c2ccccc2ncn1C1CCCCC1
    >57	i
- O=C(c1cnccn1)N1CCC2(CCCN(c3ncccn3)C2)CC1
    nt	i
- CNC(=O)c1c(C)nc(SCC(=O)NCc2ccc(OC)cc2)c(C#N)c1-c1ccco1
    >57	i
- O=S(=O)(c1ccc2c(c1)C(=NO)c1cc(S(=O)(=O)N3CCCCC3)ccc1-2)N1CCCCC1
    >57	i
- CN(c1ccc(C(=O)N2CCCCC2)cc1)S(C)(=O)=O
    >57	i

Structures listed so far that contain a CF3 group:
Results follow in this order: PK Bst	YjeE inh
- CCOC(=O)C(NC(=O)Nc1ccccc1)(OCC)C(F)(F)F (stereo not drawn)
    >57	i
- Cc1ccc(-c2nc(C3CCN(S(=O)(=O)c4ccc(C(F)(F)F)cc4)CC3)no2)cc1
    >57	i
- CC(NC(=O)Nc1ccccc1C(F)(F)F)C1CCCO1 (stereo not drawn)
    >57	i

The list continues:
Results follow in this order: PK Bst	YjeE inh
- CC1CCN(S(=O)(=O)c2ccc3c(c2)CCN3C(=O)CCC(=O)O)CC1
    >57	i
- CCN(CC)C(=O)CSc1nnc(-c2ccccc2)n1-c1ccccc1
    >57	i
- C=CCNC(=O)c1ccccc1NS(=O)(=O)c1ccccc1
    >57	i
- O=C(NC1=NCCS1)c1cccc(S(=O)(=O)N2CCCCC2)c1
    >57	i
- COc1ccc(OC)c(S(=O)(=O)Nc2cccc(C(C)=O)c2)c1
    >57	i
- O=C(NCc1ccc2c(c1)OCO2)C1CCCN(S(=O)(=O)c2cccc3cccnc23)C1 (stereo not drawn)
    nt	i
- CCOc1ccc(-n2c(-c3ccco3)n[nH]c2=S)cc1
    9.4*	i
- COc1ccc2c(c1)n([O-])c1c([n+]2=O)CCC1
    >26	nt
- COc1ccccc1OCc1nc2c3c(-c4ccccc4)c(-c4ccccc4)oc3ncn2n1
    >57	i
- CS(=O)(=O)N1CCN(C(=O)c2csc3ccccc23)CC1
    >57	i
- CCCS(=O)(=O)N1CCN(C(=O)c2cccc(OC)c2)CC1
    nt	i
- Cc1ccc(NC(=O)CCN2CCc3ccccc3C2)cc1
    >57	i
- COc1ccc(CCn2c(N)c(C#N)c3nc4ccccc4nc32)cc1OC
    >57	i
- CN1CCN(S(=O)(=O)c2cccc(C(=O)Nc3sc4c(c3C(N)=O)CCCC4)c2)CC1
    >57	i
- CCCn1nnc(NC(=O)COc2ccccc2Cl)n1
    >57	i
- OC[C@@H]1O[C@@H](n2cnc3c(N[C@@H]4C[C@@H]5CC[C@H]4C5)ncnc32)[C@@H](O)[C@H]1O
    nt	i
- CN(C)c1ccnc2sc3c(=O)n(-c4ccccc4)cnc3c12
    >57	i
- CCn1c(SCc2ccc(C#N)cc2)nnc1-c1cccc(Cl)c1
    >57	i
- O=C(CC1CCCCC1)Nc1c2c(nn1-c1ccc(F)cc1)CS(=O)(=O)C2
    >57	i
- O=C(NCc1ccccc1)C1CCN(C(=O)NCc2ccccc2)CC1
    >57	i
- CCn1cc(C(=O)Nc2ccccc2C(=O)OC)c(=O)c2ccc(C)nc21
    >57	i
- CCN(CC)S(=O)(=O)c1cccc(S(=O)(=O)c2cccc(S(=O)(=O)N(CC)CC)c2)c1
    nt	i
- CCC(=O)N1CCc2cc(S(=O)(=O)CCC(=O)NCCc3ccc(OC)c(OC)c3)ccc21
    >57	i
- CCOC(=O)C(C)Sc1nc2c(cnn2-c2ccc(C)cc2)c(=O)[nH]1 (stereo not drawn)
    >57	i
- Cc1cc2c(c(SCC(=O)N(C)c3ccccc3)n1)C(=O)OC2
    >57	i
- Cc1ccc(S(=O)(=O)Cc2cccc(C(=O)N3CCOCC3)c2)cc1
    >57	i
- O=[N+]([O-])c1ccc2c(c1)S(=O)c1ccccc1-2 (stereo not drawn)
    nt	i
- CN1C(=O)/C(=C2\SC(=S)N(CC3CCCO3)C2=O)c2ccccc21 (stereo not drawn)
    nt	i
- CCOCCCNC(=O)CCNC(=O)c1cc(OC)c(OC)c(OC)c1
    >57	i
- COc1ccc(C(=O)CC(=O)O)c2c1C=CC(C)(C)O2
    nt	i
- c1ccc2sc(-c3ccc4c(c3)OCO4)nc2c1
    nt	i
- COc1ccc(N(CC(=O)Nc2cc(C)ccc2OC)S(=O)(=O)c2c(C)noc2C)cc1
    >57	i
- Cn1c(=S)c2[nH]c(SCc3cccnc3)nc2n(C)c1=O
    nt	i
- Cn1c(N)c(C(=O)NCc2ccccc2)sc1=S
    >57	i
- Cc1cnc(NC(=O)COc2ccccc2Cl)s1
    1.4*	i
- O=C(O)C1CC=CCC1C(=O)Nc1ccc(F)c(F)c1 (stereo not drawn)
    >57	i

Screening data: PubChem BioAssay, National Center for Advancing Translational Sciences (NCATS)

The list is partial; rates above refer to the full screens.
